Mtb growth – Mycobacterium tuberculosis H37Rv growth inhibition, cell based, confirmatory dose response (AID 1949); most inactive calls were filed without a number and no value below 0 was filed; inhibition, % at 10 µg/mL, or IC50 in µg/mL where a hit was titrated; 100,000 compounds, 1.6% hits; M. tuberculosis H37Rv growth inhibition;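 active = confirmed in a dose series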;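 also: bacteria grown 7 days with compound before Alamar blue readout; 0% = untreated bacteria and 100% = reference antibiotic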
* hit, by the source's call; i = inactive.

SMILES	Mtb growth
CCOC(=O)c1c(C)n(C)c2ccc(OCC(O)CN3CCC(C)CC3)cc12 (stereo not drawn)	i
Cc1occc1C(=O)Nc1nc(-c2ccc3ccccc3c2)cs1	2.2%
Cc1ccc2ncnc(NC3CCCCC3C)c2c1 (stereo not drawn)	4.9%
O=Cc1ccc(-c2ccc(Br)cc2C(=O)O)o1	i
C=CCn1c(NC(=O)c2ccco2)c(C(=O)OCC)sc1=S	i
COc1ccccc1-c1nc(SCc2ccccc2)n[nH]1	i
O=C(CC(=O)c1ccco1)Nc1cc(Cl)ccc1Cl	16.4%
COc1ccc(S(=O)(=O)Nc2ccc(S(=O)(=O)N3CCCC3)cc2)c(Cl)c1Cl	i
CS(=O)(=O)Nc1ccc(CC#N)cc1	i
COCC(=O)Oc1c(C)cc(Br)cc1C	i
O=S(=O)(NCc1ccncc1)c1ccc(I)cc1	i
COc1ccc(OC)c(CN2CCN(C(=O)COc3ccccc3)CC2)c1	i
O=[N+]([O-])c1cccc(-c2nnc(SCc3ccc(Br)cc3)n2Cc2ccccc2)c1	7.0%
CCc1ccc(OCC(=O)NCc2cccnc2)c(Br)c1	i
O=C(c1ccc(N2CCNCC2)cc1)c1cccnc1	i
COCCCNC(=O)C1CCN(S(=O)(=O)c2ccc(OC)cc2)CC1	i
O=C(CSc1nnnn1-c1ccccc1)Nc1ccc2c(c1)OCO2	i
O=C(COc1cc(Cl)c(Cl)cc1Cl)Nc1cccnc1	i
C=C(C)COc1ccc(C2C(C(=O)OCC)=C(C)NC3=C2C(=O)CC(C)(C)C3)cc1OC (stereo not drawn)	i
O=C(CNS(=O)(=O)c1ccccc1)Nc1ccc(F)c(Cl)c1	i
O=c1[nH]c(N2CCc3ccccc3C2)nc2c1CCC2	1.2%
S=C(Nc1ccccc1)N1CCN(C/C=C/c2ccccc2)CC1	14.1%
Cc1ccc(S(=O)(=O)NC(=O)COc2cccc(C)c2)cc1	i
CCCCOc1ccc(C(=O)NCC2(c3ccccc3)CCOCC2)cc1OC	i
CCOc1ccc(CCNC(=O)CCCN2C(=O)c3ccccc3C2=O)cc1OCC	i
CC(C)(C)CC(C)(C)NC(=O)c1ccc2snnc2c1	i
COc1ccc(N2C(=O)NC(=O)/C(=C\c3sccc3C)C2=O)cc1	i
Cn1nnc(NC(=O)c2cc(I)ccc2Cl)n1	i
CCOc1ccccc1NC(=O)CN(c1cccc(OC)c1)S(C)(=O)=O	i
Fc1ccccc1OCCCCOc1ccccc1F	i
Cc1nc(-c2cccc(NC(=O)c3ccccc3F)c2)cs1	1.5%
COCCNC(=O)C1CCC(Cn2c(=S)[nH]c3ccccc3c2=O)CC1 (stereo not drawn)	i
Cc1ccc(S(=O)(=O)Nc2ccc(NC(=O)c3cccs3)cc2)cc1	3.4%
COc1cc(Br)cc2cc(C(=O)Nc3ccc(Oc4ccccc4)cc3)c(=O)oc12	43.0%
O=C(c1ccccc1)N1CCN(Cc2c[nH]c3ccccc23)CC1	i
COc1ccc(C2=NN(C(C)=O)C(c3ccc(Cl)cc3Cl)C2)c(OC(C)=O)c1 (stereo not drawn)	i
COc1cc(C=O)ccc1OC(=O)c1cn(CCC#N)nc1-c1ccccc1	i
CCn1c2ccccc2c2cc(CN3CCC(N4CCN(c5ccccc5)CC4)CC3)ccc21	1.45µg/mL*
CC(C)c1ccc(OCC(=O)Nc2ccccc2C(=O)Nc2ccccc2)cc1	i
O=C(CSc1nc2c(-c3ccco3)cc(C(F)(F)F)nc2o1)NCc1ccc(F)cc1	0.2%
O=C(Nc1cccc(-c2nc3cc(Cl)ccc3o2)c1)c1ccccc1	1.2%
Cc1cc(C)nc(Nc2ncc(O)n2-c2ccc(C)c(Cl)c2)n1	i
CCOC(=O)COc1c(Cl)cc(C=O)cc1Br	i
Cc1ccc(CC(=O)Nc2cccc(C)c2C)cc1	i
Cc1occc1C(=O)Nc1ccc2c(c1)OCO2	i
CCc1ccc(NC2C=CS(=O)(=O)C2)cc1 (stereo not drawn)	i
COc1ccc2c(Cl)c(C(=O)NC3CCS(=O)(=O)C3)sc2c1 (stereo not drawn)	i
CCNc1cc(=O)c2s[nH]c(=O)c2[nH]1	1.4%
CCOC(=O)N1CCN(C(=O)CN(c2ccccc2OC)S(=O)(=O)c2ccc(OC)cc2)CC1	i
CCC(Sc1nnc2c3ccccc3n(CC)c2n1)C(=O)Nc1nnc(C)s1 (stereo not drawn)	i
CC(C)C(=O)N1CCN(c2ccc(NC(=O)c3cncc(Br)c3)cc2)CC1	i
CC1CCCC(C2(O)C(=O)Nc3ccccc32)C1=O (stereo not drawn)	i
CCOC(=O)Cc1csc(NC(=O)c2cc(Br)ccc2Cl)n1	i
COc1ccc(Cl)cc1N(CC(=O)NC1CC1)S(=O)(=O)c1ccc(C)cc1	i
O=C(CSc1ccc(Cl)cc1)Nc1ccccc1N1CCCC1	i
CCOC(=O)c1c(-c2ccccc2)csc1NC(=O)CSc1nc(C)cc(C)n1	i
COC(=O)Nc1nc(C(C)(C)C)cs1	i
CCOc1ccc(C(=O)NCc2cccnc2)cc1Br	i
CC(=O)Nc1ccc(S(=O)(=O)Nc2cccc(C(=O)c3ccc(C)c(C)c3)c2)cc1	i
O=C(CSc1ccccn1)N1CCc2ccccc21	i

The last 7 records of the section above come first, to join the parts:
SMILES	Mtb growth
COc1ccc(Cl)cc1N(CC(=O)NC1CC1)S(=O)(=O)c1ccc(C)cc1	i
O=C(CSc1ccc(Cl)cc1)Nc1ccccc1N1CCCC1	i
CCOC(=O)c1c(-c2ccccc2)csc1NC(=O)CSc1nc(C)cc(C)n1	i
COC(=O)Nc1nc(C(C)(C)C)cs1	i
CCOc1ccc(C(=O)NCc2cccnc2)cc1Br	i
CC(=O)Nc1ccc(S(=O)(=O)Nc2cccc(C(=O)c3ccc(C)c(C)c3)c2)cc1	i
O=C(CSc1ccccn1)N1CCc2ccccc21	i
CCN(C(=O)C(=O)c1c[nH]c2ccccc12)c1ccccc1	i
CN(CC(O)COc1ccc(Cl)cc1Cl)C1CCCCC1 (stereo not drawn)	6.9%
COc1ccc(C2(C(=O)Nc3ccc(C(=O)NC(C)C)cc3)CCOCC2)cc1	i
CC(=O)c1ccc(NC(=O)CCOc2ccccc2)cc1	i
Cn1cccc1CC(=O)NNC(=S)NCC1CCCO1 (stereo not drawn)	i
CCCc1nc2oc3c(-c4ccccc4)c(C(=O)O)c(C)nc3c2c2c1COC(C)(C)C2	i
CCOC(=O)c1c(NC(=O)c2cccc(Cl)c2)sc(C(=O)Nc2ccccc2C)c1C	i
Cc1cc(C)c(S(=O)(=O)Nc2ccc(O)c(Cl)c2)c(C)c1	i
Cn1nnnc1SCC(=O)N1CCN(c2ccc(Cl)cc2)CC1	i
CS(=O)(=O)N(CC(=O)NCCC1=CCCCC1)c1ccc(I)cc1	i
NS(=O)(=O)c1ccc(CNC(=S)NCc2ccc(Cl)cc2)cc1	i
O=C(c1ccc(CNS(=O)(=O)c2cccc(Cl)c2)cc1)N1CCCCCC1	i
CCOC(=O)c1ccc(NS(C)(=O)=O)cc1	i
CC(=O)c1ccccc1OCC(O)Cn1c(Cc2ccccc2)nc2ccccc21 (stereo not drawn)	i
CCOc1ccccc1OCCN1CC(C)CC(C)C1 (stereo not drawn)	2.4%
Cc1cc(NC(=O)COc2ccc(Cl)cc2C)c(C)cc1I	i
CCC(=O)n1nc(-c2ccccc2)nc1SCc1ccccc1	9.1%
Cc1ccccc1-c1cc(C(=O)Nc2ccccc2F)c2ccccc2n1	0.4%
COc1ccc(OCC(O)CN(C)C(=O)c2ccc(Cl)cc2)cc1 (stereo not drawn)	4.2%
O=c1[nH]c(=S)[nH]c2sc3c(c12)-c1ccccc1CC3	i
CCCCc1ccc(NC(=O)C2CCCO2)cc1 (stereo not drawn)	6.4%
Cc1nn(-c2ccccc2)c2sc(C(=O)NCC(C)C)cc12	i
COc1cc(C2C(C#N)=C(N)N(c3cccc(Cl)c3)C3=C2C(=O)CC(C)(C)C3)ccc1O (stereo not drawn)	i
O=c1oc2ccccc2cc1-c1ccc(F)cc1	1.3%
CCc1cc(C(=O)N2CCN(c3cccc(OC)c3)CC2)cs1	i
COc1ccc(COc2ccc3c(C)c(CCC(=O)O)c(=O)oc3c2)cc1	3.5%
COc1ccc(Br)cc1CN1CCC(N2CCOCC2)CC1	i
COC(=O)c1ccccc1NC(=O)c1ccc(NC(=O)Cc2ccccc2)cc1	i
CC(C)C(=O)NC(c1ccc(C(C)C)cc1)c1cc([N+](=O)[O-])c2cccnc2c1O (stereo not drawn)	i
NC(=O)c1c(NC(=O)c2c(F)c(F)c(F)c(F)c2F)sc2c1CCC2	2.77µg/mL*
O=C(NCc1ccc(F)cc1)C1CC(=O)N(c2ccc(F)cc2)C1 (stereo not drawn)	i
CCn1c(Cc2ccc(OC)cc2)nnc1SCC(=O)Nc1cccc(Cl)c1	i
CCOc1ccc(Br)cc1/C=C/c1nc2ccccc2c(=O)n1C	i
CCOC(=O)c1nc(Nc2ccc(CC)cc2)sc1C	26.9%
CCOc1cc(C(=O)NC(=S)Nc2cc(C(C)CC)ccc2O)cc(OCC)c1OCC (stereo not drawn)	0.1%
Fc1ccc(OCCOCCOc2cccc3cccnc23)cc1	26.3%

Shown comma-delimited: 2 of the compounds above
compound,Mtb growth
CCc1cc(C(=O)N2CCN(c3cccc(OC)c3)CC2)cs1,i
COc1ccc(COc2ccc3c(C)c(CCC(=O)O)c(=O)oc3c2)cc1,3.5%

The list goes on.
SMILES	Mtb growth
CCOc1ccc(N(CC(=O)N2CCc3ccccc3C2)S(=O)(=O)c2ccc(Cl)cc2)cc1	7.1%
O=C(Cc1ccccc1[N+](=O)[O-])Nc1ccccc1C(=O)N1CCCC1	i
CCc1cccc(C)c1N(C(=O)Cn1c(-c2ccco2)nc2ccccc21)C(C)COC (stereo not drawn)	i
Cc1ccccc1C(=O)Nc1ccc(S(=O)(=O)Nc2ccccc2)cc1	i
Cc1ccccc1NS(=O)(=O)c1cc(S(C)(=O)=O)ccc1Cl	1.6%
CCOc1ccc(N2C(=O)CC(NCCN3CCC(Cc4ccccc4)CC3)C2=O)cc1 (stereo not drawn)	0.9%
CC(C)c1ccc(OCC(=O)N2CCN(C)CC2)c(Br)c1	i
COc1cc(C(=O)Nc2ccc(C)c(Cl)c2)ccc1OC(C)C	21.3%
CSc1ccccc1C(=O)NCc1cccnc1	i
Cc1ccc(C(=O)Nc2ccc(Cl)cc2Cl)cc1I	i
CC(=O)Cc1nsc(NC(=O)c2ccc(CSc3ccccc3)o2)n1	i
N/C(=N\OC(=O)CCCOc1ccc(Cl)cc1Cl)c1cccc([N+](=O)[O-])c1	i

Reprinted from the part before: two entries, followed by the next part.
SMILES	Mtb growth
CC(=O)Cc1nsc(NC(=O)c2ccc(CSc3ccccc3)o2)n1	i
N/C(=N\OC(=O)CCCOc1ccc(Cl)cc1Cl)c1cccc([N+](=O)[O-])c1	i
Cc1cc(Br)ccc1OCCCCN1CCOCC1	0.5%
COc1cccc(C2Nc3c(C(=O)O)cccc3C3c4ccccc4CC23)c1OC (stereo not drawn)	i
Cc1ccnc(NC(c2ccc(C(C)C)cc2)c2ccc3cccnc3c2O)c1 (stereo not drawn)	i
O=C(C1CCN(C2CC(=O)N(c3cccc(Cl)c3)C2=O)CC1)N1CCCCCC1 (stereo not drawn)	i
CCOc1cccc(C(=O)Nc2ccc(N3CCN(C)CC3)cc2)c1	i
CNC(=O)c1cc2c(C)nn(-c3ccccc3)c2s1	i
Cc1ccc(N(CC(=O)Nc2ccccc2C(=O)NCc2ccccc2)S(C)(=O)=O)cc1Cl	i
Cc1ccc(C(=O)NC(=S)Nc2ccc3c(c2)Cc2ccccc2-3)c(C)c1	i
CCc1c(C)c2ccc(OCc3cccc(F)c3)cc2oc1=O	i
O=C(CN1CCN(Cc2ccccc2)CC1)N1N=CCC1c1ccccc1 (stereo not drawn)	i
O=C(Nc1ccc(NC(=O)C(c2ccccc2)c2ccccc2)cc1)c1ccccc1Cl	42.7%
COC(=O)c1c(NC(=S)Nc2ccc(Br)cn2)sc2c1CCC(C)C2 (stereo not drawn)	0.1%

7 entries picked at random from the list so far:
SMILES	Mtb growth
COC(=O)c1c(NC(=S)Nc2ccc(Br)cn2)sc2c1CCC(C)C2 (stereo not drawn)	0.1%
O=C(C1CCN(C2CC(=O)N(c3cccc(Cl)c3)C2=O)CC1)N1CCCCCC1 (stereo not drawn)	i
O=C(CN1CCN(Cc2ccccc2)CC1)N1N=CCC1c1ccccc1 (stereo not drawn)	i
CNC(=O)c1cc2c(C)nn(-c3ccccc3)c2s1	i
Cc1ccnc(NC(c2ccc(C(C)C)cc2)c2ccc3cccnc3c2O)c1 (stereo not drawn)	i
CCOc1cccc(C(=O)Nc2ccc(N3CCN(C)CC3)cc2)c1	i
Cc1cc(Br)ccc1OCCCCN1CCOCC1	0.5%

The listing continues.
SMILES	Mtb growth
CCOC1CS(=O)(=O)CC1OCC (stereo not drawn)	i
CCCCS(=O)c1nc(-c2ccc(C)cc2)cc(-c2ccccc2)c1C#N (stereo not drawn)	26.1%
Fc1ccc(C2=CC(c3ccccc3F)n3ncnc3N2)cc1 (stereo not drawn)	i
CCOc1ccccc1NC(=O)COc1ccccc1C	i
CCOC(=O)c1cnc2ccc(OC)cc2c1Nc1cccc(C(=O)OC)c1	5.8%
CC(C)NC(=S)Nc1ccc(Oc2ccccc2)cc1	i
Cc1ccc(-n2c(SCC(=O)Nc3cc(Cl)ccc3C)nnc2-c2ccccc2)cc1C	i
Cn1c(=O)c2c(nc(Oc3ccccc3)n2Cc2c(F)cccc2Cl)n(C)c1=O	1.3%
O=C(COc1ccccc1)Nc1cccc(-c2nc3ccccc3o2)c1	i
CCc1ccccc1NC(=O)CN(c1ccccc1F)S(C)(=O)=O	i
COc1ccccc1COc1ccc2c(-c3cccc([N+](=O)[O-])c3)cc(=O)oc2c1	4.6%
O=[N+]([O-])c1cccc(-c2noc(-c3ccccc3Br)n2)c1	i
CC1=C(C(=O)Nc2cc(C)cc(C)c2)C(c2ccc(Cl)cc2)NC(=S)N1 (stereo not drawn)	38.7%
COc1ccccc1N1CCN(S(=O)(=O)c2ccc3cc(C)ccc3c2)CC1	i
CCOc1cc(C2c3c(oc4ccc(F)cc4c3=O)C(=O)N2Cc2ccccc2Cl)ccc1O (stereo not drawn)	i

Some of the compounds tested; count on the stated rates, not on these rows.
